# From PubChem
# UCH37 DUB inh: blocks the human deubiquitinase UCH37 | Q9Y5K5 | purified proteasome/UCH37, Ub-AMC cleavage fluorescence | inhibition, % (concentration not given with the values) | 330,000 tested, 0.33% active;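 active = mean of two replicates above 20%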;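 also: 0% = compound-free wells with enzyme and 100% = wells lacking proteasome; stock transfer was 100 nL into about 20 µL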
# Target sequence (Q9Y5K5 whole entry, looked up): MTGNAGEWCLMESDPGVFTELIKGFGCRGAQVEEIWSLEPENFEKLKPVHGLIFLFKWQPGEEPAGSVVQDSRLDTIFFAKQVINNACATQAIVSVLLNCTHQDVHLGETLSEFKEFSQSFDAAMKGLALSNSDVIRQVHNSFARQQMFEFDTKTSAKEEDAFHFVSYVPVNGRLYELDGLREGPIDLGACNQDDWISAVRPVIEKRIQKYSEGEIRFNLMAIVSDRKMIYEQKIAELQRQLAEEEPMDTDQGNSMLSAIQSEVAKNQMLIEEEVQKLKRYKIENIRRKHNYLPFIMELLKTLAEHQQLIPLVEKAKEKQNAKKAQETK
#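 Material: human UCH37 enzyme supplied as purified proteasome complex / Amount: 0.15 nM proteasome as dispensed / Buffer or medium: pH 7.4 Tris-HCl (50 mM) with ovalbumin, ATP-MgCl2, DTT / Times: preincubation 30 min, reaction 25 min, room temperature / Technique: AMC fluorescence from Ub-AMC cleavage, excitation 355 nm, emission 460 nm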
# ALR inh: blocks human ALR sulfhydryl oxidase activity; inhibition, % (concentration not given with the values); 290,000 tested, 3.8% active; P55789; purified ALR, DTT oxidation, H2O2 HRP-luminol luminescence;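 active = mean and each replicate at 75% or more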;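 also: stock transfer was 7.5 nL into about 7.5 µL; 0% = neutral wells and 100% = wells with inactivated enzyme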
# Target sequence (P55789 whole entry, looked up): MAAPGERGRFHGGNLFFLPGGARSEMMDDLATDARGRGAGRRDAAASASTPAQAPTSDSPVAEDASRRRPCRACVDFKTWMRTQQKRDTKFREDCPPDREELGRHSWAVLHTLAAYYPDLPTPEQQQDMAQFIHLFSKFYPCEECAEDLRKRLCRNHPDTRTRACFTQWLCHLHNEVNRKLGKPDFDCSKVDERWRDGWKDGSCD
# HNF4A DNA FP: change in binding of human HNF4 alpha to DNA; HNF4a-FITC DNA binding, fluorescence polarization, 1 h; 360,000 tested, 0.3% active; P41235; activity change, % at 10 µM; in the data active = activity change above about 30%, passing the limit was not always enough;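 also: controls were the assay level and a saturating level of protein; the project sought stronger binding though the title names inhibitors; some compounds called inactive have numbers as strong as hits; positive values seem to mean higher polarization but the record does not say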
# Target sequence (P41235 whole entry, looked up): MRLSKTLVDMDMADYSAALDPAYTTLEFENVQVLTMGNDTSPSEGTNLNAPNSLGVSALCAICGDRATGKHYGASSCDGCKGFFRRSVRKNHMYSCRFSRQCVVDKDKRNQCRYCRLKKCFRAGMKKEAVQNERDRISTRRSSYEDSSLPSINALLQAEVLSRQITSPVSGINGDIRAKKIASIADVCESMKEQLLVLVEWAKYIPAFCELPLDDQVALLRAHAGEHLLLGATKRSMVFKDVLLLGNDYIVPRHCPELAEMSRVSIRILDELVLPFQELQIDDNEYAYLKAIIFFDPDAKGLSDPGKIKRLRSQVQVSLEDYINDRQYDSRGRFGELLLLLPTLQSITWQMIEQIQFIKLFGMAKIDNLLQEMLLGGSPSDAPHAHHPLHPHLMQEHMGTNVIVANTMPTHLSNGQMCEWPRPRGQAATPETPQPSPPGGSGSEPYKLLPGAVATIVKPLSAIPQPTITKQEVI
# B2AR ag: agonists of human beta-2 adrenergic receptor inducing internalization. 340,000 tested, 0.43% active. Am2.2-beta2AR cells, FAP receptor internalization, flow cytometry; reference of the scale not given here. response, % (concentration not given with the values). AID 504454. P07550;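 active = response above a set limit, near 3 SD of response in nonfluorescent compounds, cut at about 42% in these data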;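 also: stock transfer was 100 nL into about 11 µL; a reference agonist was the positive control; negative values mostly stem from fluorescent compounds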
# Ecoli rRNA inh: inhibitors of bacterial rRNA selective over humanized ribosomes; GFP signal change (wild-type ribosome), % (concentration not given with the values); E. coli WT GFP vs humanized-ribosome RFP mutants, fluorescence, 24 h; stronger effect = lower value; DMSO median 0, no signal -100; 350,000 tested, 1.6% active; AID 720706;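 active = significant combined selectivity score with lowered wild-type GFP, culture density cut under 30%, mutant RFP and density less affected; inactive = any of these conditions unmet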; also: one replicate is shown; some compounds called inactive have numbers as strong as hits
# FGF22 binding: shifts melting point of recombinant human FGF22. recombinant FGF22 thermal shift, SYPRO orange fluorescence; percent of sucrose octasulfate shift, DMSO zero. calls only at 9.99 µM. 340,000 tested, 1.5% active;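 active = melting point raised past a set limit in the mean and every replicate; three in four hits are not shown here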
# E coli growth: E. coli growth inhibition; Escherichia coli growth, OD600, 23 h; stronger effect = lower value; 330,000 tested, 0.21% active; AID 1053175; OD600 absorbance (test concentration not listed);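 active = OD600 absorbance below the run mean of sample wells minus 3.6 SD, in any replicate, cut at about 0.56 in these data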;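 also: stock transfer was 300 nL into about 60 µL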
# Ecoli rRNA inh OD600: recorded beside Ecoli rRNA inh, whose call it bears; OD600 change, %; measured here: OD600 growth;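 optical density of the mix in the first replicate; 0 = DMSO median and -100 = no signal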
# Ecoli rRNA inh RFP: further read-out of Ecoli rRNA inh, marked with its call; RFP signal change, %; measured here: RFP humanized mutant strains;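 first replicate; 0 = DMSO median and -100 = no signal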
# The depositor's hits bear a star; i = inactive; x = not tested or not shown.
SMILES,UCH37 DUB inh,ALR inh,HNF4A DNA FP,B2AR ag,Ecoli rRNA inh,Ecoli rRNA inh OD600,Ecoli rRNA inh RFP,FGF22 binding,E coli growth
CC(/C=C/c1ccc(N(C)C)cc1)=N\N=C1\NC(=O)CC(C(=O)Nc2ccccc2)S1 (configuration not stated),x,x,33.8*,-2.5,-17.9,-14.6,-7.7,i,x
Clc1ccc(Oc2cccc(/C=N/n3cnnc3)c2)cc1,x,-5.2,-1.1,-3.0,x,x,x,x,x
Cc1cc2oc(=O)ccc2cc1[N+](=O)[O-],2.0,-1.6,-5.4,-0.5,7.2,1.1,13.3,i,0.646
O=C(Cc1cccs1)NC(Cc1c[nH]c2ccccc12)C(=O)O (configuration not stated),1.3,-6.4,-2.1,7.9,-0.3,0.3,-2.2,i,0.713
COCCN(CCNC(=O)c1ccc(NC2=NC3CS(=O)(=O)CC3S2)cc1)Cc1ccco1 (configuration not stated),0.1,-3.2,-2.1,1.5,10.8,6.5,5.4,i,0.724
COc1ccc(S(=O)(=O)N2CCOCC2)cc1NC(=O)CC(C)c1ccccc1 (configuration not stated),0.8,-2.4,0.3,-2.3,6.8,-1.2,1.2,i,0.7
CCOC(=O)c1c(C)oc2c1c(C=NCc1ccccn1)c(O)c1ccccc12,3.5,x,-5.6,5.7,11.2,-11.6,14.2,x,0.679
CCOc1ccc(NC(=O)CSc2nnc(-c3ccco3)n2C)cc1,3.5,-4.9,0.2,-19.5,x,x,x,x,0.701
CSc1cccc(N2C(=O)C3CCCN3C2=S)c1 (configuration not stated),x,-3.8,2.0,-7.9,0.7,2.1,-2.2,i,x
O=C(N/N=C/c1ccco1)c1cc(C2CC2)[nH]n1,x,2.3,0.0,-7.5,7.9,6.0,-2.5,i,x
O=C(Nc1ccnn1C1CCN(C(=O)Cc2cccc(Cl)c2)CC1)C1CC1,-0.9,-12.3,3.0,4.0,17.2,15.9,1.1,i,0.701
COc1ccc2nc(NC(=O)Nc3cccc4ccccc34)sc2c1,-16.1,-36.0,-4.1,3.6,-23.2*,-16.8*,4.1*,x,0.692
COCCSc1nc2c(c(=O)[nH]c(=O)n2C)n1Cc1cccc(C)c1,1.9,-1.5,0.3,-6.2,2.9,-2.8,-1.4,i,0.711
COCCCNC(=O)/C(C#N)=C/c1c(N2CCN(c3ccccc3)CC2)nc2ccccn2c1=O,-304.9,6.9,-1.2,5.4,-9.1,-7.1,1.9,i,0.657
CCOC(=O)C1CCCN(C(=O)CNC(=O)c2nn(-c3ccc(OC)c(Cl)c3)c(=O)c3ccccc23)C1 (configuration not stated),2.2,-2.9,6.0,4.7,-1.7,0.7,1.3,i,0.668
Cc1ccc(CN2CCC(CNC(=O)c3ccc(NC(=O)C4=CSCCO4)cc3)CC2)cc1,4.0,-2.4,-1.6,-1.5,1.4,-1.1,0.5,i,0.716
CC(OC(=O)c1cc2ccccc2o1)C(=O)Nc1ccc(N2CCOCC2)cc1 (configuration not stated),1.4,x,2.1,-4.5,15.7,12.3,1.2,i,0.711
Cn1c(CC(=O)NNC(=O)c2ccccc2[N+](=O)[O-])nc2ccccc21,-0.4,x,0.4,5.7,-3.3,3.8,-2.6,i,0.668
COc1ccccc1C(=O)NC(CCSC)C(=O)NCCCn1nc(C)cc1C (configuration not stated),0.9,-2.6,-3.0,-0.9,9.8,12.4,-1.8,i,0.677
O=C(COC(=O)c1cccnc1Cl)Nc1cc(S(=O)(=O)N2CCOCC2)ccc1Cl,0.7,-2.5,0.0,1.3,x,x,x,i,0.643
Cc1c(S(=O)(=O)Nc2ccc3c(c2)OCCO3)cnn1C,2.4,-3.8,20.0,15.2,20.9,16.4,1.3,i,0.637
Cc1ccc(COc2ccc(Br)cc2/C=N/O)cc1,x,-1.8,0.3,3.2,x,x,x,x,x
Cc1cc(-n2c(C)cc(C(=O)CN3C(=O)NC4(CCCCC4C)C3=O)c2C)no1 (configuration not stated),1.6,-1.0,3.2,0.0,x,x,x,x,0.703
CCCN1C(=O)/C(=C/c2ccc(C)s2)NC1=S,3.1,x,6.5,-2.2,x,x,x,x,0.736
Cc1cccc(-n2nnnc2SCn2nnc3ccccc3c2=O)c1,0.4,-9.5,-5.4,-6.5,x,x,x,x,0.699
CCOC(=O)c1c(C)n(-c2ccc(OC)cc2)c2ccc(O)c(CN(C)C)c12,1.5,-0.2,5.2,17.6,-2.9,-21.8,0.4,i,0.666
Cc1ccc(OCC(=O)Nc2ccc3c(c2)C(=O)N(CCC(=O)O)C3=O)cc1,-1.3,-3.5,0.4,-1.3,2.2,7.8,-1.4,i,0.705
COc1cc2c(c(OC)c1)C(c1cccc(OC)c1OC)CC(=O)N2 (configuration not stated),7.5,-0.1,1.8,-1.4,-7.2,-8.3,-1.7,i,0.734
CCOC(=O)C(=O)C1=CN(Cc2ccccc2)C=C(C#N)C1,-4.5,x,-1.1,5.1,10.2,8.0,-1.2,i,0.699
COc1ccc(CCc2nnc(CCC(=O)NCc3cnn(-c4ccccc4C)c3)o2)cc1,0.4,-1.2,1.6,4.6,-10.9,-7.3,-1.0,i,0.696

# Full records as entered above. Screens in order: UCH37 DUB inh | ALR inh | HNF4A DNA FP | B2AR ag | Ecoli rRNA inh | Ecoli rRNA inh OD600 | Ecoli rRNA inh RFP | FGF22 binding | E coli growth
# Results for Cc1c(S(=O)(=O)Nc2ccc3c(c2)OCCO3)cnn1C → 2.4 | -3.8 | 20.0 | 15.2 | 20.9 | 16.4 | 1.3 | i | 0.637
# Results for Cc1cc(-n2c(C)cc(C(=O)CN3C(=O)NC4(CCCCC4C)C3=O)c2C)no1 (configuration not stated) → 1.6 | -1.0 | 3.2 | 0.0 | x | x | x | x | 0.703
# Results for COc1ccc(CCc2nnc(CCC(=O)NCc3cnn(-c4ccccc4C)c3)o2)cc1 → 0.4 | -1.2 | 1.6 | 4.6 | -10.9 | -7.3 | -1.0 | i | 0.696
# Results for O=C(COC(=O)c1cccnc1Cl)Nc1cc(S(=O)(=O)N2CCOCC2)ccc1Cl → 0.7 | -2.5 | 0.0 | 1.3 | x | x | x | i | 0.643
# Results for CC(OC(=O)c1cc2ccccc2o1)C(=O)Nc1ccc(N2CCOCC2)cc1 (configuration not stated) → 1.4 | x | 2.1 | -4.5 | 15.7 | 12.3 | 1.2 | i | 0.711

# (continued)
SMILES,UCH37 DUB inh,ALR inh,HNF4A DNA FP,B2AR ag,Ecoli rRNA inh,Ecoli rRNA inh OD600,Ecoli rRNA inh RFP,FGF22 binding,E coli growth
CC(C)(C)c1ccc(S(=O)(=O)N2CCN(CCC#N)CC2)cc1,-0.4,x,3.8,3.0,-6.4,-4.5,-1.0,i,0.711
CCOc1ccc(Cl)cc1/C=C1/C(=O)ON=C1C,-0.9,x,-2.2,-1.9,8.2,3.5,1.9,i,0.665
CCN(CC)CCNC(=O)c1cn(CC)c2ccc(S(=O)(=O)N(C)C3CCCCC3)cc2c1=O,0.7,0.8,0.6,1.7,-3.1,-3.6,-0.9,i,0.707
C=CCN1C(=O)CSc2ccc(C(=O)NC3CCCCC3)cc21,2.2,2.5,2.0,-4.0,-11.5,-12.9,0.9,i,0.677
COc1ccccc1/C=N/NS(=O)(=O)c1ccccc1,x,14.4,-0.8,-1.6,1.1,-11.4,-6.2,i,x
CC1(C)CC(=O)c2cc(OCC(=O)N3CCN(c4ccccc4F)CC3)ccc2O1,-85.0,-3.1,0.8,11.7,-15.4,-14.5,9.8,i,0.665
Nc1cccc(C(=O)Nc2cccc3ncccc23)c1,2.7,-1.2,-2.3,-1.5,12.0,6.7,2.0,i,0.672
Cc1cccc(NC(=O)CSc2nnc(CN3CCOCC3)n2C)c1C,2.2,-0.9,0.9,3.0,14.2,18.1,0.0,i,0.657
FC(F)(F)c1cccc(CNC2CCN(Cc3ccccc3)CC2)c1,2.9,-14.0,0.9,-2.1,0.4,-13.6,19.1,i,0.651
CCOC(=O)N1CCC(NC(=O)Cc2cn(C)c3ccccc23)CC1,1.3,-0.7,0.7,-2.4,x,x,x,x,0.713
CCCNC(=O)CCn1c(-c2ccc(C)cc2)cc(C(=O)OCC)c1C,1.8,-13.6,0.0,-10.8,x,x,x,x,0.695
CC12CCC(=O)C=C1CCC1C2C(O)CC2(C)C1CCC2(O)C(=O)CO (configuration not stated),-1.4,-14.9,-1.2,-8.3,x,x,x,i,0.628
O=C(NC1CCCCC1)C(CCc1ccccc1)n1c(=O)c(-c2ccccc2)nc2ccccc21 (configuration not stated),x,x,0.4,x,7.2,8.0,5.3,i,x
Cc1ccc(Nc2nc(CSc3nnc(-c4ccc(F)cc4)n3C)cs2)cc1,3.9,7.2,11.5,-5.1,x,x,x,x,0.715
O=C(CCCc1ccccc1)NCc1ccc(F)cc1,3.1,-2.3,0.5,-2.0,x,x,x,i,0.711
Cc1c(C(=O)Nc2cccc(Cl)c2)oc2ccc(S(=O)(=O)N3CCC4(CC3)OCCO4)cc12,0.2,-4.5,-4.2,21.8,10.3,13.5,0.7,i,0.749
C=CCSc1nnc2c(n1)OC(C)=Nc1ccc(Br)cc1-2,3.1,-5.9,2.8,2.3,4.3,-3.6,-1.6,i,0.719
C=CCOc1ccc(-c2n[nH]c(=S)o2)cc1,-2.1,27.5,1.9,2.0,0.2,-0.6,0.4,i,0.691
CC(=O)NC1C(OCc2cccc(Br)c2)OC(COC(C)=O)C(OC(C)=O)C1OC(C)=O (configuration not stated),4.3,-5.1,-2.2,3.1,17.4,9.0,-0.3,i,0.655
COCCCNC(=O)C1CC(=O)N(CCc2ccc(OC)c(OC)c2)C1 (configuration not stated),2.7,x,-4.2,6.0,x,x,x,x,0.752
O=C(Nc1ccc(S(=O)(=O)NCc2cccnc2)cc1)c1ccco1,2.0,3.6,-5.5,-18.0,x,x,x,x,0.7
O=C(CSc1nnc(CNC(=O)c2ccccc2F)o1)NC1CCCC1,1.1,5.8,1.9,-0.4,9.9,12.6,1.6,i,0.656
C=CCn1c(O)c(N=NC(=O)CNC(=O)c2cccs2)c2ccccc21,5.7,-21.1,-2.2,-15.6,-6.7,-4.8,-2.1,i,0.683
Cc1nn(C)cc1CN(C)S(=O)(=O)c1cccc([N+](=O)[O-])c1,4.4,x,1.5,0.6,14.2,18.2,0.5,i,0.652
O=C(CCc1nnc(Cc2ccc3c(c2)OCO3)o1)NCc1nc2ccccc2s1,1.8,x,8.1,1.4,5.8,-0.9,-0.1,i,0.683
O=C(NNC(=O)c1cccnc1)Nc1ccccc1,2.7,17.8,-1.4,2.9,x,x,x,x,0.661
O=C(CSc1ncnc2c1sc1ccccc12)Nc1ccc(Br)cc1,-1.7,-7.8,6.0,-0.5,6.3,12.2,-1.3,i,0.671
CSCCC(c1nc2ccccc2[nH]1)n1c(-c2ccc(C)cc2)nc2ccccc21 (configuration not stated),x,x,-2.4,x,8.5,3.5,8.6,i,x
COc1cc(/C=C/C(=O)OCC(=O)NCCN2C(=O)CSC2=O)ccc1OCC#N,-9.9,-2.0,-0.6,-5.0,x,x,x,i,0.675
CCCCN1C(Nc2ccccc2)=NC[C@@H]1CC(C)C,-2.5,x,1.2,0.8,1.5,2.4,5.7,i,0.744
Clc1cccc(Cl)c1Cn1cnc2c(NCc3ccco3)ncnc21,-1.9,24.2,-1.3,1.1,-3.6,4.0,0.8,i,0.762

# This is a subset; rates above refer to the full screens.
